ID4 binder = binders of human ID4 protein | P47928 | small molecule microarray, Flag-ID4 binding, fluorescence F/B | calls only | 31,000 compounds, 1.2% hits | AID 624137;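 active = spot signal over background at p below 0.07 in all four prints; compounds were printed on slides so no solution concentration is given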;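 note: a binder raises fluorescence above local background on the spot; about 2 pmol printed per array spot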
Target sequence (P47928 whole entry, looked up): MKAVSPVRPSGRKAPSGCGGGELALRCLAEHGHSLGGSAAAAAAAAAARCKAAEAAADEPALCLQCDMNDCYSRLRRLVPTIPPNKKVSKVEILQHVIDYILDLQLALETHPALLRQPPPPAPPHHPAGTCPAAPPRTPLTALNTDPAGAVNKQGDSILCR
Calls only; i = inactive.

cpd | compound | ID4 binder
1 | COCCOC(=O)N1C(=O)[C@@]2(c3cc(C#CCNC(N)=O)ccc31)[C@H](C(=O)N1CCc3cc(OC)c(OC)cc3C1)[C@H]1C(=O)O[C@H](c3ccccc3)[C@H](c3ccccc3)N1[C@@H]2c1ccccc1OCCO | i
2 | C[C@H](CO)N1C[C@H](C)[C@@H](CN(C)CC2CCCC2)Oc2ncc(Br)cc2C1=O | i
3 | CCOC(=O)c1ccc(NC(=O)CSc2nc3ccc(C)cc3[nH]2)cc1 | i
4 | O=C(CC1NCCNC1=O)Nc1ccccc1[N+](=O)[O-] (centres undefined) | i
5 | COc1cc(OC)c(NC(=O)CSc2nnc(C)s2)cc1Cl | i
6 | CSc1scc(N)c1S(=O)(=O)C(C)C | i
7 | COC(=O)c1cc(OC)c(OC)cc1NC(=O)c1c(-c2ccccc2)noc1C | i
8 | C[C@H]1CN([C@@H](C)CO)C(=O)c2cc(C#CC3CC3)cnc2O[C@@H]1CN(C)C(=O)c1ccccc1 | i
9 | CCC1(C)Cc2c(sc3nc(SC)nc(SCC(=O)Nc4ccc(C)cc4)c23)CO1 (centres undefined) | i
10 | COc1ccc(NC(=O)CCSc2nnc3scc(-c4ccc(C)cc4)n23)cc1 | i
11 | CCOc1ccc2nc(Nc3nc(C)c(Cc4ccc(C)cc4)c(=O)[nH]3)nc(C)c2c1 | i
12 | N#Cc1ccccc1OCCCCSc1ncccn1 | i
13 | COCC(=O)Nc1ccc2c(c1)[C@@H]1C[C@H](CC(=O)NCc3cccnc3)O[C@@H](CO)[C@@H]1O2 | i
14 | C[C@H]1CN([C@@H](C)CO)C(=O)c2cc(Br)cnc2O[C@H]1CN(C)CC1CCOCC1 | i
15 | O=C(CSc1nccc(=O)[nH]1)Nc1ccc(Oc2ccccc2)cc1 | i
16 | Cc1cc(C)nc(Nc2n[nH]c(-c3ccccc3C)n2)n1 | i
17 | COc1ccc(-c2cnc3c(c2)C(=O)N([C@H](C)CO)C[C@@H](C)[C@H](CN(C)C)O3)cc1 | i
18 | Cc1cccc(C)c1Nc1c(CN2C(=O)c3ccccc3C2=O)nc2ccc(Br)cn12 | i
19 | Cc1ccccc1-c1cc(C(=O)NCCCN2CCOCC2)c2cc(Cl)ccc2n1 | i
20 | CC(C)C#Cc1cnc2c(c1)C(=O)N([C@@H](C)CO)C[C@H](C)[C@@H](CN(C)Cc1ccccn1)O2 | i
21 | COc1ccc(OC)c(NC(=O)C2CC(=O)n3ncnc3N2)c1 (centres undefined) | i
22 | CCc1nc(SCC(=O)Nc2ccccc2C(=O)OC)n[nH]1 | i
23 | COc1cc(NC(=O)CC2NC3CCCCC3NC2=O)cc(OC)c1 (centres undefined) | i
24 | CCCC#Cc1ccc2c(c1)O[C@H](CN(C)C)[C@H](C)CN([C@@H](C)CO)S2(=O)=O | i
25 | Cc1ccccc1-c1cnc2c(c1)C(=O)N([C@H](C)CO)C[C@@H](C)[C@H](CN(C)Cc1ccncc1)O2 | i
26 | C[C@H](CO)N1C[C@H](C)[C@@H](CN(C)CC2CCCC2)Oc2ncc(C#C[C@@H](C)O)cc2C1=O | i
27 | C[C@@H]1CN([C@H](C)CO)C(=O)c2cc(Br)cnc2O[C@H]1CN(C)Cc1ccccc1 | i
28 | COc1ccc(OC)c(S(=O)(=O)Nc2cc3c(C(C)=O)c(C)oc3c3ccccc23)c1 | i
29 | CC(C)c1cn(CC[C@@H]2CC[C@H](NC(=O)C3CCCC3)[C@H](CO)O2)nn1 | i
30 | CCCN(C)C[C@H]1Oc2cc(-c3ccccc3)ccc2S(=O)(=O)N([C@H](C)CO)C[C@H]1C | i

Of the compounds above, these have an aryl methoxy group.
cpd | compound | ID4 binder
1 | COCCOC(=O)N1C(=O)[C@@]2(c3cc(C#CCNC(N)=O)ccc31)[C@H](C(=O)N1CCc3cc(OC)c(OC)cc3C1)[C@H]1C(=O)O[C@H](c3ccccc3)[C@H](c3ccccc3)N1[C@@H]2c1ccccc1OCCO | i
5 | COc1cc(OC)c(NC(=O)CSc2nnc(C)s2)cc1Cl | i
7 | COC(=O)c1cc(OC)c(OC)cc1NC(=O)c1c(-c2ccccc2)noc1C | i
10 | COc1ccc(NC(=O)CCSc2nnc3scc(-c4ccc(C)cc4)n23)cc1 | i
17 | COc1ccc(-c2cnc3c(c2)C(=O)N([C@H](C)CO)C[C@@H](C)[C@H](CN(C)C)O3)cc1 | i
21 | COc1ccc(OC)c(NC(=O)C2CC(=O)n3ncnc3N2)c1 (centres undefined) | i
23 | COc1cc(NC(=O)CC2NC3CCCCC3NC2=O)cc(OC)c1 (centres undefined) | i
28 | COc1ccc(OC)c(S(=O)(=O)Nc2cc3c(C(C)=O)c(C)oc3c3ccccc23)c1 | i

(cont.)
cpd | compound | ID4 binder
31 | CCS(=O)(=O)c1nc2ccccc2n1CCOc1ccc(OC)cc1 | i
32 | O=C1O[C@H](c2ccccc2)[C@H](c2ccccc2)N2[C@H]1[C@@H](C(=O)NC[C@H](O)c1ccccc1)[C@]1(C(=O)Nc3ccc(C#CCCO)cc31)[C@H]2c1ccc(OCCO)cc1 | i
33 | O=C(Nc1ccc2c(c1)[C@H]1C[C@@H](CC(=O)N3CCc4ccccc4C3)O[C@H](CO)[C@H]1O2)c1cccnc1 | i
34 | O=C(CC1(O)C(=O)N(Cc2ccccc2)c2ccc(Br)cc21)c1ccco1 (centres undefined) | i
35 | CCN(CC(=O)Nc1cccc2ccccc12)S(=O)(=O)c1ccc2ccccc2c1 | i
36 | O=C(C[C@@H]1CC[C@H](NS(=O)(=O)c2ccc(F)cc2)[C@H](CO)O1)NCc1ccc(Cl)c(Cl)c1 | i
37 | O=C(Nc1ccc2c(c1)OCO2)N[C@@H]1C=C[C@@H](CC(=O)N2CCN(c3ccccc3)CC2)O[C@H]1CO | i
38 | CC(=O)NCCCC[C@@H]1NC(=O)[C@H]2C[C@@H](C(=O)NCCCCCCN(C)C)[C@@H](c3cccc(OCCO)c3)N2C1=O | i
39 | C[C@@H]1CN([C@@H](C)CO)C(=O)c2cc(-c3cccc(C#N)c3)cnc2O[C@H]1CN(C)Cc1ccc(F)cc1 | i
40 | CC(=O)c1ccc(NC(=O)COc2ccccc2C(=O)Nc2cc(C(F)(F)F)ccc2Cl)cc1 | i
41 | CC1(C)CC(=O)c2cc(OCC(=O)NCCN3CCOCC3)ccc2O1 | i
42 | C[C@@H]1CN([C@@H](C)CO)C(=O)c2cc(C#C[C@@H](C)O)cnc2O[C@H]1CN(C)CC1CCCC1 | i
43 | C[C@@H]1CN([C@H](C)CO)C(=O)c2cc(-c3ccccc3)cnc2O[C@H]1CN(C)C(=O)Cc1ccccc1 | i
44 | Cn1c(SCC(=O)Nc2ccccc2-c2ccccc2)nnc1-c1ccccn1 | i
45 | O=C(Nc1nc2ccccc2n1CCN1CCOCC1)c1ccccc1 | i
46 | CC(C)CC#Cc1ccc2c(c1)O[C@@H](CN(C)C(=O)Cc1ccncc1)[C@@H](C)CN([C@H](C)CO)S2(=O)=O | i
47 | C[C@@H]1CN([C@H](C)CO)C(=O)CCCn2cc(nn2)CO[C@H]1CN(C)CC1CCCC1 | i
48 | COc1ccc(N2C(=O)CC(SCC(=O)Nc3ccc(C)c(C)c3)C2=O)cc1 (centres undefined) | i
49 | C[C@H](CO)N1C[C@H](C)[C@@H](CN(C)C(=O)C2CCCCC2)Oc2ncc(C#CC3CCCC3)cc2C1=O | i
50 | Cc1ccc(-c2cnc3c(c2)C(=O)N([C@@H](C)CO)C[C@@H](C)[C@H](CN(C)C)O3)cc1 | i
51 | COc1ccc(Cl)cc1N(CC(=O)Nc1ccc(C)c(C)c1)S(C)(=O)=O | i
52 | COc1ccc(NC(=O)c2ccc(OCC(=O)Nc3ccccc3F)cc2)cc1Cl | i
53 | CS(=O)(=O)N(CC(=O)NC1CC1)c1cccc(F)c1 | i
54 | O=C(CSc1nc2cc3ccccc3cc2[nH]1)Nc1ccccc1Cl | i
55 | O=C(C[C@@H]1C=C[C@H](NC(=O)C2CCC2)[C@@H](CO)O1)NCC1CC1 | i
56 | CC(C)OC(=O)N(C)C[C@H]1OCc2ccccc2-c2ccccc2C(=O)N([C@H](C)CO)C[C@@H]1C | i
57 | N#C[C@H]1[C@@H](c2ccc(C3=CCCCC3)cc2)[C@@H](CO)N1C(=O)NC1CCCCC1 | i
58 | Cc1ccc(Cl)c(OCC(O)Cn2cnc3cc(C)c(C)cc32)c1 (centres undefined) | i
59 | Fc1ccccc1CSc1nnc(-c2cnccn2)n1Cc1ccco1 | i
60 | Cc1nc(SCC(=O)Nc2ccc3c(c2)OCCO3)c2c3c(sc2n1)CCC3 | i
61 | COc1ccc(C)cc1S(=O)(=O)N1CCC(C(=O)Nc2ccc3c(c2)OCCO3)CC1 | i
62 | CN(C)CC(=O)N1[C@H](C#N)[C@@H](c2ccc(C#CC3CCCCC3)cc2)[C@H]1CO | i
63 | O=C(C[C@H]1C[C@H]2c3cc(NC(=O)Nc4ccccc4)ccc3O[C@H]2[C@H](CO)O1)NCc1ccccc1 | i
64 | CCCNC(=O)N(C)C[C@@H]1Oc2cc(C#Cc3ccccn3)ccc2S(=O)(=O)N([C@H](C)CO)C[C@@H]1C | i
65 | C[C@@H]1CN([C@H](C)CO)C(=O)c2cc(-c3ccc(F)cc3)cnc2O[C@H]1CN(C)C(=O)CN(C)C | i
66 | O=C(O)c1cccc(NS(=O)(=O)c2cc(S(=O)(=O)c3ccc(Cl)cc3)ccc2Cl)c1 | i
67 | COc1ccc(OC)c(S(=O)(=O)N(C)CC(=O)Nc2ccc(C(F)(F)F)cc2)c1 | i
68 | CCCC#Cc1cnc2c(c1)C(=O)N([C@H](C)CO)C[C@H](C)[C@@H](CN(C)C(=O)C1CCCCC1)O2 | i
69 | C[C@@H]1CN([C@H](C)CO)C(=O)c2cc(C#CC3CC3)cnc2O[C@@H]1CN(C)C(=O)CC1CC1 | i
70 | CC(=O)N(C)C[C@@H]1Oc2ncc(C#Cc3ccc(F)cc3)cc2C(=O)N([C@@H](C)CO)C[C@@H]1C | i
71 | C[C@H](CO)N1C[C@H](C)[C@H](CN(C)C)Oc2cc(C#CC3(O)CCCC3)ccc2S1(=O)=O | i
72 | COc1ccc(S(=O)(=O)N(C)CC(=O)NC2CCCC2)cc1C | i
73 | COc1cccc(S(=O)(=O)N[C@@H]2C=C[C@@H](CC(=O)NC3Cc4ccccc4C3)O[C@@H]2CO)c1 | i
74 | CN(C)C(=O)C[C@H]1CC[C@H](NC(=O)C2CC2)[C@H](CO)O1 | i
75 | COc1ccc(CNC(=O)C[C@@H]2C[C@H]3c4cc(NC(=O)CN(C)C)ccc4O[C@H]3[C@H](CO)O2)cc1 | i
76 | C[C@@H]1CN([C@@H](C)CO)C(=O)c2cc(C#CCN(C)C)cnc2O[C@@H]1CN(C)C(=O)Nc1cc(F)ccc1F | i
77 | C[C@H]1CN([C@@H](C)CO)C(=O)c2cc(C#CC3CCCC3)cnc2O[C@@H]1CN(C)S(C)(=O)=O | i
78 | O=C(COc1ccc(Br)cc1)Nc1cccc2ncccc12 | i
79 | O=C(COc1ccccc1[N+](=O)[O-])Nc1cccc(Cl)c1N1CCOCC1 | i
80 | Cc1nc(SCC(=O)NCc2ccco2)c2c3c(sc2n1)CCC3 | i
81 | COc1ccc(NC(=O)Nc2ccc3c(c2)[C@H]2C[C@H](CC(=O)N4CCCCC4)O[C@H](CO)[C@H]2O3)cc1 | i
82 | CC(C)C#Cc1ccc2c(c1)O[C@@H](CN(C)Cc1ccncc1)[C@H](C)CN([C@@H](C)CO)S2(=O)=O | i
83 | C[C@H](CO)N1C[C@H](C)[C@H](CN(C)C(=O)Nc2ccccc2)Oc2c(cccc2N(C)C)C1=O | i
84 | CSC(=NCc1sccc1COc1ccc(Cl)cc1)NC#N | i
85 | COc1ccc(C)cc1S(=O)(=O)N1CCCC(C(=O)Nc2ccccc2)C1 (centres undefined) | i
86 | CC(=O)O[C@@H]1c2c(ccc3ccc(=O)oc23)O[C@@H]1C(C)(C)OC(=O)C=C(C)C | i
87 | C[C@@H]1CN([C@@H](C)CO)C(=O)CCCn2cc(nn2)CO[C@H]1CN(C)CC1CC1 | i
88 | Cc1ccccc1-c1nc(SCC(=O)Nc2ccccc2)n[nH]1 | i
89 | COc1ccc(-c2ccc3c(c2)O[C@H](CN(C)C(=O)Nc2ccccc2F)[C@@H](C)CN([C@@H](C)CO)S3(=O)=O)cc1 | i
90 | C[C@H](CO)N1C[C@H](C)[C@@H](CN(C)Cc2ccncc2)Oc2ncc(C#CCN(C)C)cc2C1=O | i

(cont.)
cpd | compound | ID4 binder
91 | COc1ccc(OC)c(C(=O)CSc2nnc(-c3cccs3)n2C)c1 | i
92 | C[C@@H]1CN([C@H](C)CO)C(=O)c2cc(C#CC3CC3)cnc2O[C@@H]1CN(C)C(=O)c1ccc(F)cc1 | i
93 | O=C(C[C@@H]1C=C[C@H](NC(=O)Cc2cccnc2)[C@H](CO)O1)Nc1ccccc1 | i
94 | CCCC#Cc1cnc2c(c1)C(=O)N([C@H](C)CO)C[C@H](C)[C@H](CN(C)Cc1ccc(F)cc1)O2 | i
95 | O=C(C[C@H]1C=C[C@@H](NC(=O)CN2CCOCC2)[C@@H](CO)O1)NC1CCCCC1 | i
96 | C[C@@H]1CN([C@@H](C)CO)S(=O)(=O)c2ccc(C#CC3CC3)cc2O[C@@H]1CN(C)Cc1ccccc1 | i
97 | COC(=O)CCC(=O)Nc1cccc([N+](=O)[O-])c1 | i
98 | COc1ccc(NC(=O)CNC(=O)c2ccccc2C)cc1 | i
99 | CC(C)(C)c1ccc(Oc2c(C(F)(F)F)oc3cc(OCC(=O)O)ccc3c2=O)cc1 | i
100 | O=C(Nc1cnn(Cc2ccc(Cl)cc2Cl)c1)C1CC(c2cccc(Br)c2)=NO1 (centres undefined) | i
101 | COc1ccccc1C(CCNCc1ccccc1)c1ccco1 (centres undefined) | i
102 | O=C(C[C@H]1C=C[C@H](NS(=O)(=O)c2ccc(F)cc2)[C@@H](CO)O1)NC1CCCCC1 | i
103 | CNc1nc(SC(C)C(=O)Nc2ccc(Cl)c(Cl)c2)nc(N2CCOCC2)n1 (centres undefined) | i
104 | C[C@@H]1CN([C@H](C)CO)S(=O)(=O)c2ccc(C3=CCCCC3)cc2O[C@H]1CN(C)C | i
105 | COc1ccc([Si](C)(C)[C@@H]2[C@@H](CCO)O[C@]3(C(=O)N(Cc4ccc(N5CCCCC5=O)cc4)c4ccccc43)[C@H]2C)cc1 | i
106 | CN(C)C1=NC(C(F)(F)F)(C(F)(F)F)N=C(c2ccccc2)O1 | i
107 | COc1ccc(C)cc1NC(=O)CN(C)S(=O)(=O)c1ccccc1 | i

Screening results: PubChem, Broad Institute

Some of the compounds tested; the hit share may differ from the screen's.
